Compound activity from PubChem BioAssay.
AmpC nodet inh = inhibitors of E. coli AmpC beta-lactamase without detergent. AID 585. Potency, µM (top dose mostly 28.7 µM), inactives show top-dose activity change, negative = inhibition. 1.8% of 71,000 active. AmpC nitrocefin hydrolysis, absorbance 480 nm, no detergent; potencies from a single point are estimates. P00811; active = falling curve, for most hits resting on a single point; inconclusive = weak or doubtful change; inactive = flat or rising curve; note: % of control where 0% means no effect; about half of the hits show no inhibition at the top dose; a quarter of the inactives give rising signals
Target sequence (P00811 whole entry, looked up): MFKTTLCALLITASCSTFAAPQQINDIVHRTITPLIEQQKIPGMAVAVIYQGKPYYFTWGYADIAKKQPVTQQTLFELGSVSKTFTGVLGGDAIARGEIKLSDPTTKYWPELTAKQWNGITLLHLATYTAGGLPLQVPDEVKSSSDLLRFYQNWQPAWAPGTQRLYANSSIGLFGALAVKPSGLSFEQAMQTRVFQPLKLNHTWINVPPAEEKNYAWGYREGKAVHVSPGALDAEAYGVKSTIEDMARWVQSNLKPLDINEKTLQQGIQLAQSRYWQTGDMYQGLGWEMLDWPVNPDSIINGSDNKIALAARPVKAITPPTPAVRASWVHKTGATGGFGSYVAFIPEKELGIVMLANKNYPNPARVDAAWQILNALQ
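AmpC in 20 mM phosphate buffer pH 7.0 was preincubated 15 min at room temperature with compounds. Nitrocefin (800 uM stock) was then added and hydrolysis followed at 480 nm every 20 s for 4 min.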
The depositor's hits bear a star; ? = inconclusive; & = joins results of further samples; [ ] = remark or other dose. Potency is the fitted concentration of half-maximal effect.

SMILES	AmpC nodet inh
CCn1cnc2c1c(=O)n(CC(=O)N1CCc3ccccc31)c(=O)n2Cc1ccccc1	108%
COC(=O)c1ccc(NC(=O)C(C)N2C(=O)c3ccccc3C2=O)cc1 (stereo not drawn)	-6%
CC(=O)Nc1ccc(NC(=O)Cn2cnc3c(cnn3C(C)(C)C)c2=O)cc1	-6%
N#Cc1ccc(CSc2nnc(NC(=O)C3CCCO3)s2)cc1 (stereo not drawn)	0%
CCSc1nnc(Cc2cc(=O)[nH]c(=O)[nH]2)n1-c1cc(C)ccc1C	-9%
CCCCc1c(O)nc(N2CCN(Cc3ccccc3)CC2)[nH]c1=O	4%
Clc1ccc2ccccc2c1	-3%
CCOc1ncccc1C(=O)OCC(=O)NCCc1ccc(OC)cc1	19%
O=C(NCCCN1CCOCC1)c1c(O)c2ccccc2[nH]c1=O	24%
CS(=O)(=O)N(CC(=O)N1CCN(Cc2ccc3c(c2)OCO3)CC1)c1ccc2c(c1)OCO2	68%
O=C(Nc1nc2ccccc2n1CCN1CCCC1)C1CCCCC1	-2%
CCOC(=O)c1cnn(CCOC(=O)C2CC2)c1NC(=O)C1CC1	-7%
O=C(O)COc1ccc2c(c1)CCCC2	-2%
Cc1ccc(NC(=O)N(Cc2ccco2)C(C)c2ccco2)cc1C (stereo not drawn)	-5%
Cc1cc(O)c(NC(=O)c2ccco2)cc1C	0%
COc1cc(=O)n(C)c2cc(N(C)C)ccc12	7%
COc1ccccc1N(CC(=O)N1CCCCCC1)S(C)(=O)=O	9%
CSc1nc2c(c(=O)n1-c1ccccc1)SCC2	-7%
O=C(CCc1ccc(CCC(=O)c2cccs2)s1)c1cccs1	?
COCC(=O)O[C@]1(CCN(C)CCCc2nc3ccccc3[nH]2)CCc2cc(F)ccc2[C@@H]1C(C)C	104%
COc1cc(C2N(c3ccccn3)C(=O)C3CCCN32)cc(OC)c1OC (stereo not drawn)	3%
COc1ccc2c(c1OC)C(=O)N(c1ccccn1)C2	6%
NCCCCNCCCN	-1%&-7%
COc1ccc(NC(=O)c2cc(-c3cc(C)cc(C)c3O)n[nH]2)cc1Cl	-6%
O=C(Cc1c(O)c2ccccc2[nH]c1=O)NC1CCCCCCC1	-21%
Cc1ccc(S(=O)(=O)NCCN=C(CN2CCCC2)NS(=O)(=O)c2ccc(C)cc2)cc1	25%
NC(=O)CS(=O)(=O)c1nc2ccccc2n1Cc1ccccc1F	13%
O=C(CN(C1CCCCC1)S(=O)(=O)c1ccc(F)cc1)NC1CC1	34%
COC(=O)c1cccc(NC(=O)CN2CCN(Cc3ccccc3)CC2)c1	58%
Cc1sc2nc(C3CC3)nc(NCCNS(C)(=O)=O)c2c1C	6%
C=CCNc1nc(C2(C)CC3(CC(C)OC3=O)C(=O)O2)cs1 (stereo not drawn)	11%
O=C(CSc1nnc(-c2ccccc2)o1)c1nnc(-c2ccccc2)o1	?
Cc1ccoc1C(=O)NCc1occc1C(=O)O	-3%
CCOC(=O)c1c(C)c(C(=O)NC(C)COC)c(C)n1CC (stereo not drawn)	12%
CCOc1ccc(N2C(=O)c3cccnc3C2Nc2ccc(C)cc2)cc1 (stereo not drawn)	39%
O=C(Nc1cccc(Cl)c1)c1ccncc1	-8%
CCCS(=O)(=O)N1CCCC(C(=O)NCCN(CC)CC)C1 (stereo not drawn)	-13%
Cn1c(C(=O)N2CCCC(C(=O)N3CCN(C(=O)c4ccco4)CC3)C2)cc2sccc21 (stereo not drawn)	103%
NS(=O)(=O)c1ccc(CNC(=O)NC23CC4CC(CC(C4)C2)C3)cc1	-14%
c1ccc(N2CCCCC2)c(NC2=NCCC2)c1	-11%

In the list so far, these have a Cl atom:
SMILES	AmpC nodet inh
Clc1ccc2ccccc2c1	-3%
COc1ccc(NC(=O)c2cc(-c3cc(C)cc(C)c3O)n[nH]2)cc1Cl	-6%
O=C(Nc1cccc(Cl)c1)c1ccncc1	-8%

(list continues)
SMILES	AmpC nodet inh
Cc1ccc(NC(=O)C2(N(C(=O)Cn3nnnc3N)c3ccc(C)cc3)CCCCC2)cc1	78%
Cn1c(COc2ccc3ccccc3c2)nnc1SCC(N)=O	42%
COc1ccc(-n2c(=O)c(-c3cccc(Cl)c3)nc3cncnc32)cc1	8%
COCCn1c(SCc2cccnc2)nnc1-c1ccco1	-6%
Cc1cc(C)cc(N2CC(c3nc4ccccc4n3C)CC2=O)c1 (stereo not drawn)	45%
COc1ccc(NC(=O)CC2CCCCC2)cc1OC	11%
COCCNc1nnc(SCC(=O)N2CCN(S(=O)(=O)c3ccccc3)CC2)s1	5%
O=C(CCn1c(=O)oc2ccccc21)N1CCCCCC1	-9%
CCn1c(SCc2nc3ccccc3[nH]2)nnc1-c1cccs1	-5%
O=C(CCn1c(=O)oc2ccccc21)NCCCN1CCN(c2ccc(F)cc2)CC1	32%
CCOC(=O)CNC(=O)c1nn(-c2ccc(OCC)cc2)c(=O)c2ccccc12	56%
COc1ccc2sc(NC(=O)c3ccco3)nc2c1	2%
O=c1c(-c2cccs2)nc2cnc(Oc3cccc(Cl)c3)nc2n1C[C@H]1CCCO1	26%
COc1ccc(OCC2CNC(=O)O2)cc1 (stereo not drawn)	16%
NCCC(=O)N[C@@H](Cc1cnc[nH]1)C(=O)O	6%
COC(=O)CSc1nnc(-c2cccs2)n1-c1ccc(Cl)cc1	55%
CCOC(=O)C1=C(C)NC2=C(C(=O)CC(c3ccc(OC)c(OC)c3)C2)C1c1ccc(C)o1 (stereo not drawn)	114%
Cc1nc2ncnn2c(N2CCN(C(c3ccccc3)c3ccccc3)CC2)c1C	172%
CCOC(=O)C1(CC)NC(c2ccco2)C2C(=O)N(c3ccc(C)cc3)C(=O)C21 (stereo not drawn)	22%
CCOC(=O)C1CCN(Cc2cnc(NC(=O)OC)s2)CC1	-3%
O=C(NC1CCCC1)C1CCCN(S(=O)(=O)c2cnc[nH]2)C1 (stereo not drawn)	0%
CCNc1ncc2nc(C)c(=O)n(CCOC)c2n1	13%
Cc1cc(NC(=O)CSc2ccc(-c3nc4cc(C)c(C)cc4[nH]3)cn2)no1	-15%
COC(=O)c1c(-c2cccnc2)csc1NC(=O)c1cc(C)on1	44%
c1cncc(-c2ccc3ncnc(N4CCNCC4)c3c2)c1	2%
COc1ccc2[nH]c(=O)c(CN(CCCN3CCOCC3)C(=O)NCc3ccccc3)cc2c1	63%
CN(Cc1ccccc1)C(=O)c1ccc2c(c1)OCO2	10%
CC(Sc1nc(N2CCOCC2)c2c(c1C#N)CC(C)(C)OC2)C(=O)Nc1ccccc1 (stereo not drawn)	78%
CCN(CC)C(=O)c1sc(NC(=O)Cc2cccs2)c(C#N)c1C	15%
COc1ccc(-n2nnc3c(=O)n(Cc4cc(C)ccc4C)cnc32)cc1	8%
C=CCOC(=O)C1=C(C)NC(SC)=C(C#N)C1c1ccc(OCC)cc1 (stereo not drawn)	-4%
O=C(CCN1C(=O)c2ccncc2C1=O)Nc1ccc2c(c1)OCCO2	4%
O=C(O)C(Cl)(Cl)Br	-5%
O=C(NCc1ccco1)c1ccc(S(=O)(=O)c2cccc(S(=O)(=O)N3CCOCC3)c2)cc1	34%
c1ccc(C2=NCCCN2)cc1	-3%
Cc1c(NC(=O)c2nn(C)c(=O)c3ccccc23)c(=O)n(-c2ccccc2)n1C	3%
NC(=O)c1ccc(F)cc1	-4%
CN1C[C@@H](O)[C@@H](O)[C@@H](O)[C@@H]1CO	-3%
CC(C)[C@H](NC(=O)Nc1ccc2c(c1)OCCO2)C(=O)O	-6%
CN1CCc2c(sc3c2c(=O)n(-c2ccccc2)c2nnc(SCc4ccc(F)cc4)n32)C1	66%

Some of the entries so far, in markdown.
| compound | AmpC nodet inh |
| --- | --- |
| NC(=O)c1ccc(F)cc1 | -4% |
| CN1C[C@@H](O)[C@@H](O)[C@@H](O)[C@@H]1CO | -3% |
| CC(C)[C@H](NC(=O)Nc1ccc2c(c1)OCCO2)C(=O)O | -6% |

Additional results follow:
SMILES	AmpC nodet inh
Nc1ccc2c3c(cccc13)C(=O)NC2=O	5%
Cc1ccc(C)c(Cn2nnc3c(=O)[nH]c(C4CCCN(C(=O)CC(C)C)C4)nc32)c1 (stereo not drawn)	97%
O=C(OCc1nnc(-c2ccc(Cl)cc2)o1)c1ccc(=O)n(Cc2ccccc2)n1	48%
O=c1cc(-c2ccccc2)nc(N2CCN(Cc3ccccc3)CC2)[nH]1	102%
Cn1c(=O)c2[nH]c(CN(Cc3ccccc3)Cc3ccccc3)nc2n(C)c1=O	88%
Cc1cc2nc([C@H](C)C(=O)c3ccc(Cl)cc3)c(=O)[nH]c2cc1C	-7%[5.75 µM]
CC(C)CC(NC(N)=O)C(=O)OCC(=O)NC(=O)NC1CCCC1 (stereo not drawn)	0%
COc1ccc(-n2c(=O)c(-c3cccs3)nc3cnc(N4CCOCC4)nc32)cc1	4%
Cn1c(O)c(C=NC2C(=O)C3(C)CCC2C3(C)C)c(=O)n(C)c1=O (stereo not drawn)	25%
O=C(Nc1ncc2c(n1)CC(c1ccco1)CC2=O)c1ccc(Cl)cc1 (stereo not drawn)	-4%
CCOC(=O)N1CCN(S(=O)(=O)c2cc(Cl)ccc2Cl)CC1	21%
O=C(c1ccco1)N1CCCSC1=Nc1ccccc1	-12%
Cn1c(-c2ccc3ccccc3n2)nc2cnccc21	47%
COc1ccc(NC(=O)c2c(SC)nsc2SC)cc1	0%
CC[N+](CC)(CC)CC	-1%
COc1ccc(NC(=O)N2CCCC2C(=O)Nc2ccc(C)cc2)cc1 (stereo not drawn)	-21%
Cc1sc2nc(SCC(=O)NCc3ccco3)n(C)c(=O)c2c1C	-5%
COc1ccccc1-c1ccc2ncnc(NC3CC3)c2c1	54%
CCc1ncc(C(O)c2cccc(OC)c2OC)n1C (stereo not drawn)	-13%
c1ccc(-c2ccccc2-c2nc(-c3cccnc3)no2)cc1	49%
COC(=O)CN(C#N)c1nc(OC)nc(N(C)C)n1	7%
OCCNCCCOc1cccc(Cl)c1Cl	2%
O=C(NCc1ccc2c(c1)OCO2)c1cccc(C(=O)NCc2ccc3c(c2)OCO3)c1	?
CCCCn1c(O)c(C(CC)=Nc2cccc(C(=O)O)c2)c(=O)[nH]c1=O	-7%
O=S(=O)(c1ccccc1)N1CCN(S(=O)(=O)c2ccccc2)c2ccccc21	-5%[5.75 µM]
O=c1[nH]c2c(c3c1CCCC3)CCCC2	0%
O=C(c1csnn1)N1CCC[C@@]2(CCN(C(c3ccccc3)c3ccccc3)C2)C1	80%
CCCNC(=O)CS(=O)(=O)Cc1nc(-c2ccccc2C)oc1C	48%
Cc1cc(C(=O)CN(Cc2ccc(F)cc2)S(=O)(=O)c2ccc3c(c2)OCCO3)c(C)n1C	20%
COc1ccc(NC(=O)C2CCN(C(=O)NCc3ccccc3)CC2)cc1	-3%
CN(C)C(=O)Oc1ccc(OC(=O)c2ccccc2)cc1	8%
CC(C)[C@@]1(NC(=O)[C@@H]2C[C@H]3c4cccc5[nH]cc(c45)C[C@@H]3N(C)C2)O[C@@]2(O)[C@H]3CCCN3C(=O)[C@@H](Cc3ccccc3)N2C1=O	121%
CC(C)CN(CC(C)C)C(=O)C12CCC(C)(C(=O)C1)C2(C)C (stereo not drawn)	27%
CC(C)(C)C(=O)NC1CCN(S(=O)(=O)c2ccccc2F)CC1	23%
CCOC(=O)N1CCN(C(=O)c2cc(S(=O)(=O)N3CCCC3)cn2C)CC1	11%
CN1CCN(c2oc(-c3ccco3)nc2S(=O)(=O)c2ccccc2)CC1	7%
CC(C)OC(=O)CSc1nnc(-c2ccco2)n1N	-8%
CC(=O)NCCc1c[nH]c2ccccc12	-2%&8%
COc1cc(CN2CC(C)OC(C)C2)cc(OC)c1 (stereo not drawn)	-4%
O=C1CCCC(O)=C1C1C2=C(CCCC2=O)Oc2ccccc21 (stereo not drawn)	-3%
CCOC(=O)[C@H](CCc1ccccc1)N[C@@H](C)C(=O)N1CCC[C@H]1C(=O)O	6%[12.8 µM]
c1ccc(NCc2nnc3n2CCCCC3)cc1	3%
O=C(C1CCN(S(=O)(=O)c2cccc3nsnc23)CC1)N1CCN(c2ccccc2F)CC1	55%
Cc1onc(-c2c(Cl)cccc2Cl)c1C(=O)Nc1ccc2c(c1)OCO2	-10%
CC(=O)Nc1c(O)n(C)c2ccccc12	2%
CC(C)c1nnc(NC(=O)C2CCN(c3nc4ccccc4s3)CC2)s1	45%
Nc1cccc(C(F)(F)F)c1	-7%
CCOC(=O)c1cc(C#N)c(SCC(=O)c2cc(C#N)c(SC)nc2C)nc1C	0%
CC1=C(C(=O)OC(C)C)C(c2c[nH]c3ccccc23)n2ncnc2N1 (stereo not drawn)	4µM*[single pt active]
O=C(COC(=O)c1ccc(S(=O)(=O)N2CCCC2)cc1)NCc1ccccc1	2%
CCS(=O)(=O)CCSc1nc(C)cc(C)c1C#N	3%
Cc1ccc(NC(=O)CS(=O)CC(=O)NCCCN(C)c2ccccc2)cc1 (stereo not drawn)	62%
CCCOc1ccc(CCN2CCC(=O)NC2=O)cc1C	46%

Another view of 4 compounds above.
structure | AmpC nodet inh
O=C(Nc1nc2ccccc2n1CCN1CCCC1)C1CCCCC1 | -2%
CCOC(=O)c1cnn(CCOC(=O)C2CC2)c1NC(=O)C1CC1 | -7%
O=C(O)COc1ccc2c(c1)CCCC2 | -2%
Cc1ccc(NC(=O)N(Cc2ccco2)C(C)c2ccco2)cc1C (stereo not drawn) | -5%

Two compounds picked at random from the list so far, as already listed:
SMILES	AmpC nodet inh
CCOC(=O)C1CCN(Cc2cnc(NC(=O)OC)s2)CC1	-3%
O=C(O)C(Cl)(Cl)Br	-5%

Only part of the results is shown; the hit share may differ from the screen's.
